Bioassay records as filed in PubChem.
Epigenetic reg – Quantitative High-Throughput Screen for Regulators of Epigenetic Control | murine LDR cells, GFP reporter derepression, 30 h | AID 1865, 2009 | 280,000 tested, 0.2% active | Potency, µM (series often up to 53.9 µM), inactives show top-dose GFP activation, usual class: activators; note: % of control where 0% means no effect; nearly all actives have a fitted effect of over 60% in size
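Reporter derepression read as number of fluorescent GFP-positive objects, 20-120 um in size, counted by laser-scanning cytometer. Mouse LDR line with an epigenetically silenced CMV-GFP locus; compound incubation 30 h, 37 C.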
GAA glycogen mod – qHTS Assay for Inhibitors and Activators of Human alpha-Glucosidase Cleavage of Glycogen | Lysosomal alpha-glucosidase (Homo sapiens), P10253 | recombinant GAA, glycogen substrate, Amplex Red glucose oxidase fluorescence | Potency, µM (doses to about 76.4 µM), for inactives: at the highest dose activity change, negative = inhibition, usual class: inhibitors | 300,000 tested, 0.38% active | AID 2100, 2009;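 note: 0% = full enzyme reaction and -100% = no-enzyme basal signal; the screen sought inhibitors and activators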
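Recombinant human enzyme (4 nM); glycogen substrate; 37 C, 40 min, pH 5.0. Readout: coupled glucose oxidase/Amplex Red fluorescence.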
Tau fluor counter – Counterscreen qHTS for Inhibitors of Tau Fibril Formation, Fluorescence Polarization; tau K18 P301L Alexa594 fluorescence, heparin fibrillization; AID 1463, 2008; 280,000 tested, 0.93% active; Potency, µM (doses to about 57.7 µM), inactives show at the top dose activity change, negative = decrease; note: % is set by controls: 0 for no effect and ±100 for the full control effect; nearly all actives have a fitted effect of over 55% in size
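Human tau K18 P301L (15 uM unlabeled, 0.24 uM Alexa 594-labeled) in 100 mM sodium acetate pH 7 with 20 uM heparin, 6 hr at 37 C. ThT 30 uM added, 1 hr ambient; Alexa 594 FP and total fluorescence read at 555/632 nm.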
GLA spleen mod – qHTS Assay for Inhibitors and Activators of Human alpha-Galactosidase From Spleen Homogenate. Alpha-galactosidase A (Homo sapiens), P06280. human spleen homogenate, 4MU-alpha-Gal fluorescence, 40 min. Potency, µM (top dose mostly 80 µM), for inactives: top-dose activity change, negative = inhibition, actives largely listed as inhibitors. 240,000 tested, 0.008% active. AID 2107, 2009;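 note: 0% = enzyme with vehicle and -100% = no enzyme basal signal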
Target sequence (P06280 32-429 limits assumed): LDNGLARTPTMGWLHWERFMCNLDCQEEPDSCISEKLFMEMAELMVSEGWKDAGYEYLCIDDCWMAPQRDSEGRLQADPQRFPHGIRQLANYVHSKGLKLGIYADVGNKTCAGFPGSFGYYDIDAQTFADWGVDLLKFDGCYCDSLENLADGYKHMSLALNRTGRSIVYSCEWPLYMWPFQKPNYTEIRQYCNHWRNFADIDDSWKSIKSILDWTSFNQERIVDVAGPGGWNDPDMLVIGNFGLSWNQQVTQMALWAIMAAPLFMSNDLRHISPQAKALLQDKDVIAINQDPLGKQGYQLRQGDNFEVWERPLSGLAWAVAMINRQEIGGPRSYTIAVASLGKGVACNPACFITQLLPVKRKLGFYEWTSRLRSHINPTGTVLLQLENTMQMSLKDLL
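Human spleen homogenate (1 ug) was the enzyme source, with 4-methylumbelliferyl-alpha-D-galactopyranoside (1 mM final) in pH 5.0 citrate buffer with 0.01% Tween-20. Compounds were titrated; after 40 min at 37C, NaOH/glycine stop, 4-MU fluorescence read; AC50 from Hill fits.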
NPSR antagonist – qHTS Assay for Antagonists of the Neuropeptide S Receptor: cAMP Signal Transduction; CHO-NPSR cells, cAMP TR-FRET, antagonist mode; 220,000 tested, 1% active; AID 1461, 2008; Potency, µM (doses to about 38.3 µM), without a hit: top-dose activity change, negative = inhibition, hits mostly inhibitors; Q6W5P4; note: % is set by controls: 0 for no effect and ±100 for the full control effect; nearly all actives have a fitted effect of over 50% in size; many of its hits are not listed in these tables
Target sequence (Q6W5P4 whole entry, looked up): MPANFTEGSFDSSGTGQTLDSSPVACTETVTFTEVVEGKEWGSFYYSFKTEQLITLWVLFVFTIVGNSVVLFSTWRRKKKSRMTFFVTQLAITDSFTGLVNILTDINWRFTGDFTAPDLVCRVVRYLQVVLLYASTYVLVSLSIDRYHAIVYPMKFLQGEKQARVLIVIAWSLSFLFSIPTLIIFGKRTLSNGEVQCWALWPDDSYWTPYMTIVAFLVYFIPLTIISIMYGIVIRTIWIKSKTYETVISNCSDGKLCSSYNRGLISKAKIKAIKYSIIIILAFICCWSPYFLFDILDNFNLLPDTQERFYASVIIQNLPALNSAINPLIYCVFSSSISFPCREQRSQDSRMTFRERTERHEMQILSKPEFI
GAA inhib – qHTS Assay for Inhibitors of Human alpha-Glucosidase as a Potential Chaperone Treatment of Pompe Disease | Lysosomal alpha-glucosidase (Homo sapiens), P10253 | purified human GAA, 4-MU-alpha-glucoside fluorescence | Potency, µM (titrated, usually from 76.9 µM), without a hit: at the highest dose activity change, negative = inhibition, actives largely listed as inhibitors | 200,000 tested, 0.005% active;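 note: plate controls were uninhibited enzyme wells for no effect and no-enzyme background for full effect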
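Fluorescence at Ex 365/Em 440 nm from 4-methylumbelliferone reported enzyme activity after 20 min at room temperature. Reactions used 4 nM enzyme and 400 uM substrate at pH 5.0; curves fitted with the Hill equation.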
GAA spleen mod – qHTS Assay for Inhibitors and Activators of Human alpha-Glucosidase From Spleen Homogenate; Potency, µM (series often up to 79.9 µM), for inactives: top-dose activity change, negative = inhibition, hits mostly inhibitors; 240,000 tested, 0.006% active; human spleen homogenate, 4-MU-alpha-glucoside fluorescence; Lysosomal alpha-glucosidase (Homo sapiens), P10253;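 note: 0% = enzyme with vehicle and -100% = no enzyme basal signal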
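Compounds were titrated against alpha-glucosidase in spleen homogenate at pH 5.0, with 1 mM 4-methylumbelliferyl substrate for 40 min at 37 C. Reactions were quenched with pH 10 NaOH/glycine and fluorescence measured.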
The depositor's hits bear a star; ? = inconclusive; · = not tested or not shown; & = joins results of further samples; [ ] = another dose, or the depositor's remark. Calls come from the whole dose curve; as a rule, active = well fitted curve in the direction sought with a large enough effect; inconclusive = small, poorly fitted or top-dose-only effect, or another doubt; inactive = no such curve, though single readings can be large; an effect the other way counts as inactive or inconclusive. Potency is the fitted concentration of half-maximal effect. Only part of the results is shown; rates above refer to the full screens.

SMILES | Epigenetic reg | GAA glycogen mod | Tau fluor counter | GLA spleen mod | NPSR antagonist | GAA inhib | GAA spleen mod
CCOc1ccccc1C(=O)NC(C(=O)NCc1ccc(F)cc1)C(C)C (configuration not stated) | -2.7% | 4% | -11% | -3% | 2% | -10% | -2%
N/C(=N\OC(=O)c1cccnc1)c1ccc(Cl)cc1Cl | 1.1% | 25% | -4% | 0% | 2% | 7% | 7%
Cc1cc(NC(=O)CSc2nc3c(c(=O)n2-c2ccccc2)SC(C)C3)no1 (configuration not stated) | -1.0% | -3% | -8% | 3% | 3% | -2% | -5%
COc1ccccc1N1CCN(CCCCN2C(=O)CCC2=O)CC1 | 0.8%&0.3% | · | -16%&-8% | -2%&8% | · | · | 4%&0%
CSc1nnc(-c2sccc2OCc2ccc(C)cc2)n1C | -1.2% | 6% | 3% | -6% | -25%[46.1 µM] | -2% | -4%
COc1ccc(/C=C/C(=O)NCCn2c(C)cc3ccccc32)cc1OC | 0.0% | -4% | ? | -15% | -17% | 1%[15.4 µM] | 2%
Cc1ccc(-c2cc(C(=O)NCCCn3ccnc3)no2)cc1 | 0.0% | -5% | 12% | -6% | -3% | -4% | 7%
COc1cccc(CNS(=O)(=O)c2cc(Br)cc3c2N(C(C)=O)C(C)C3)c1 (configuration not stated) | 0.3%&0.8% | -4%[76.3 µM] | -12%&-6% | 2% | -2%[46.1 µM] | -1% | 5%
CCCn1c(N)cc(=O)n(CCC)c1=O | 1.1% | 4% | 1% | 1% | 5% | 4% | -2%
COc1ccccc1N1C(N)=NC(N)=NC1(C)C | -1.0% | 8% | -3% | 0% | ? | 8% | -4%
Cc1cccc(NC(=O)COn2nnc3ccc(S(C)(=O)=O)cc32)c1 | -1.3% | 1% | -5% | -1% | 4% | -3% | 6%
Cc1ccc(-c2csc(NC(=O)Cn3cnc4c3c(=O)n(C)c(=O)n4C)n2)cc1C | -3.1% | 2% | -17% | -2% | 4%[46.1 µM] | -4% | 2%
Cc1ccsc1C(=O)NNC(=O)Nc1ccc(Cl)c(Cl)c1 | 2.2% | -12% | -18% | 13% | 5%[46.1 µM] | -13% | 4%
Cc1cccc(N=C2NC(=O)/C(=C/c3cn(C)c4ccccc34)S2)c1 | 1.0% | 12% | ? | 1% | -37% | -5% | -14%
CCC(=O)NC(c1ccc([N+](=O)[O-])cc1)c1c(O)ccc2ccccc12 (configuration not stated) | -0.9% | 2% | ? | -16% | ? | ? | -12%
CC(C)(C)OC(=O)N/N=C\C=C\c1ccc2c(c1)OCO2 | -0.9% | 5% | -9% | -21% | -22% | 1% | -11%
COc1ccc(-c2nc(SCc3ccccc3)n(S(C)(=O)=O)n2)cc1 | -1.0% | 1% | ? | -5% | ? | -3% | -12%
CC(C)CNC(=O)COC(=O)CCC(=O)c1ccc(Cl)cc1 | 2.1% | 2% | -5% | 4% | -2% | -1% | 1%
Cc1onc(-c2c(F)cccc2Cl)c1C(=O)OCC(=O)NC(N)=O | -1.1% | 10% | 4% | -3% | 26% | 9% | 0%
CCc1cc2c(=O)[nH]c(Cc3ccccc3)nc2s1 | 0.8% | 4% | -17% | 2% | -1%[46.1 µM] | -7% | -4%
Fc1ccc(-c2csc(N3CCSCC3)n2)cc1 | -0.5% | -2% | -16% | 3% | 1% | 4% | 5%
Cc1ccc([N+](=O)[O-])cc1N(CC(=O)Nc1ccc(S(=O)(=O)Nc2cccc(C(F)(F)F)c2)cc1)S(C)(=O)=O | 2.2% | -1% | ? | -5% | -53% | 4% | -7%
O=C(NC1CC1)C1CCCN1C(=O)NC1CCCCC1 (configuration not stated) | -0.1% | 0% | -8% | 0% | 13% | 6% | 2%
O=C(Nc1ccc(Cl)cc1)N1CCSc2ccccc21 | -1.8% | 29% | -24% | -2% | -2%[46.1 µM] | ? | 4%
CCOC(=O)c1c(NC(=O)CCC(=O)O)sc2c1CC(C)(C)OC2 | 0.0% | 6% | 9% | 3% | -12% | 8% | 0%
CCCCCOC(=O)C1C2C=CC3(CN(c4ccccc4C)C(=O)C13)O2 (configuration not stated) | -0.9% | -2% | -8% | 1% | -7%[46.1 µM] | -8% | -6%
Cc1ccccc1S(=O)(=O)Nc1ncc(C(F)(F)F)cc1Cl | -1.4% | 2% | -1% | -3% | -14% | 0% | 5%
Cc1cc(C#N)c2ccccc2n1 | 5.1% | -2% | -4% | -4% | 1%[46.1 µM] | 0% | -7%
O=C1NC2(CCCCC2)C(=O)N1CCS(=O)(=O)Oc1ccc(Br)cc1 | 1.1% | -3% | -2% | 18% | -1% | -3% | -18%
O=C(NCCCN1CCOCC1)c1ccc(Cl)c(S(=O)(=O)N2CCCCCC2)c1 | 0.1% | 9% | -13% | 2% | 8%[46.1 µM] | 0% | 3%
O=C1CC(C(=O)Nc2ccccc2)N=C(N2CCCCC2)N1 (configuration not stated) | -0.2% | -5% | 5% | 6% | -10%[46.1 µM] | -2% | 1%
Cc1ccc(S(=O)(=O)n2c3ccc(Cl)cc3c3nc(C)sc32)cc1 | -1.1% | -7% | -21% | 8% | -22% | -1% | -3%
O=P(CCC(F)(F)F)(CCC(F)(F)F)CCC(F)(F)F | 0.1% | 7% | -4% | 8% | 7%[46.1 µM] | 3% | 1%
COc1ccc(C(=O)Nc2ccc(/C(C)=N/NC(=O)c3ccccc3O)cc2)cc1OC | -1.9% | -7% | -14% | 3% | -7% | -2% | -3%
CC1CCC(C(=O)NC(C(=O)NCCCN2CCOCC2)C(C)C)CC1 (configuration not stated) | -1.1% | 14% | -3% | -19% | -17%[46.1 µM] | 0% | -14%
COc1ccc(C(=O)NC(CC(=O)O)c2cc([N+](=O)[O-])ccc2Cl)cc1 (configuration not stated) | -3.7% | 3% | 0% | -2% | 18% | 7% | 0%
Cc1c(C(=O)OCC(=O)N(C)C2CCS(=O)(=O)C2)oc2ccc(Br)cc12 (configuration not stated) | 11% | 6% | -19% | -8% | 3% | 1%[15.4 µM] | -4%
Cc1cc(C)cc(OCc2nnc(SCC(=O)Nc3ccccc3)o2)c1 | -2.1% | -4% | -8% | -4% | -20%[46.1 µM] | -8% | -10%
CCN1CCCC1CNS(=O)(=O)c1cccc(C(F)(F)F)c1 (configuration not stated) | -4.9% | -9% | 3% | -2% | -1% | 3% | -1%
COC(=O)[C@@H]1C[C@H]1[C@@H](NC(C)=O)c1ccccc1 | -1.6% | · | -7% | -14% | · | · | 4%
O=C1/C(=C\c2cccnc2)SC(=S)N1C1CCS(=O)(=O)C1 (configuration not stated) | -0.5% | -9% | -2% | 3% | 3%[46.1 µM] | 2% | -18%
O=[N+]([O-])c1ccc(N2CCOCC2)cc1NCc1ccccc1 | -1.9% | 3% | ? | -1% | -18%[46.1 µM] | -7% | -11%
COc1ccc2cc3cc(C(=O)N4CCN(c5ccccc5)CC4)oc3nc2c1 | 1.8% | 17% | -9% | 1% | -19%[46.1 µM] | -13% | 0%
CC(=O)c1cccc(-n2nnnc2SCC(=O)NNC(=O)C2CCCCC2)c1 | 2.4% | 5% | -2% | -2% | 13% | 4% | 7%
COc1ccc(CN2CCCCC2C)cc1OC (configuration not stated) | -0.2% | 12% | -15% | 4% | 2%[46.1 µM] | 6% | 1%
Cc1ccc(N(CC(=O)N/N=C/c2cccc(Br)c2)S(C)(=O)=O)cc1 | -0.9% | -5% | -14% | 1% | -9% | -4% | -2%
COc1ccc(C(=O)Nc2ccc3c(c2)OCCO3)cc1 | -1.0% | 8% | 1% | 5% | -5%[46.1 µM] | -8% | 5%
CCCCn1c(N)c(N(CCC(C)C)C(=O)CSc2nnc(C)s2)c(=O)[nH]c1=O | 0.9% | -4% | 2% | 0% | -8%[46.1 µM] | -8% | 2%
S=C(NCCc1ccccc1)NCC(c1ccco1)N1CCCCC1 (configuration not stated) | -1.2% | -12% | -17% | 2% | -4% | -3% | -2%
COc1ccc(S(=O)(=O)NCCC(=O)NCc2ccc(F)cc2)cc1 | 0.4% | 8% | 3% | 1% | -4%[46.1 µM] | 6% | 1%

Laid out differently: results already given.
Values run as follows: Epigenetic reg, GAA glycogen mod, Tau fluor counter, GLA spleen mod, NPSR antagonist, GAA inhib, GAA spleen mod
O=C1/C(=C\c2cccnc2)SC(=S)N1C1CCS(=O)(=O)C1 (configuration not stated)
    -0.5%, -9%, -2%, 3%, 3%[46.1 µM], 2%, -18%
O=[N+]([O-])c1ccc(N2CCOCC2)cc1NCc1ccccc1
    -1.9%, 3%, ?, -1%, -18%[46.1 µM], -7%, -11%
COc1ccc2cc3cc(C(=O)N4CCN(c5ccccc5)CC4)oc3nc2c1
    1.8%, 17%, -9%, 1%, -19%[46.1 µM], -13%, 0%
CC(=O)c1cccc(-n2nnnc2SCC(=O)NNC(=O)C2CCCCC2)c1
    2.4%, 5%, -2%, -2%, 13%, 4%, 7%
COc1ccc(CN2CCCCC2C)cc1OC (configuration not stated)
    -0.2%, 12%, -15%, 4%, 2%[46.1 µM], 6%, 1%

Of the compounds above, these contain an aryl thioether with sulfur outside any ring.
SMILES | Epigenetic reg | GAA glycogen mod | Tau fluor counter | GLA spleen mod | NPSR antagonist | GAA inhib | GAA spleen mod
Cc1cc(NC(=O)CSc2nc3c(c(=O)n2-c2ccccc2)SC(C)C3)no1 (configuration not stated) | -1.0% | -3% | -8% | 3% | 3% | -2% | -5%
CSc1nnc(-c2sccc2OCc2ccc(C)cc2)n1C | -1.2% | 6% | 3% | -6% | -25%[46.1 µM] | -2% | -4%
COc1ccc(-c2nc(SCc3ccccc3)n(S(C)(=O)=O)n2)cc1 | -1.0% | 1% | ? | -5% | ? | -3% | -12%
Cc1cc(C)cc(OCc2nnc(SCC(=O)Nc3ccccc3)o2)c1 | -2.1% | -4% | -8% | -4% | -20%[46.1 µM] | -8% | -10%
CC(=O)c1cccc(-n2nnnc2SCC(=O)NNC(=O)C2CCCCC2)c1 | 2.4% | 5% | -2% | -2% | 13% | 4% | 7%
CCCCn1c(N)c(N(CCC(C)C)C(=O)CSc2nnc(C)s2)c(=O)[nH]c1=O | 0.9% | -4% | 2% | 0% | -8%[46.1 µM] | -8% | 2%
